# Screening results deposited in PubChem by Broad Institute.
# rRNA inh HTS = reduced GFP signal of wild-type E. coli, primary screen, bacterial rRNA inhibitor project, GFP/RFP fluorescence, OD600, single point | E. coli WT GFP vs humanized-ribosome RFP mutants, 24 h; hits give low values; DMSO median 0, no signal -100 | GFP signal change (wild-type ribosome), % (concentration not given with the values) | 1.6% of 350,000 active | AID 720706, 2013;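 active = significant combined selectivity score with lowered wild-type GFP, culture density cut under 30%, mutant RFP and density less affected; inactive = any of these conditions unmet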; also: one replicate is shown; some compounds called inactive have numbers as strong as hits
# MLL AF4-AF9 inh = inhibitors of AF4 peptide binding to AF9, primary screen, biochemical, AlphaScreen, biotin-AF4 peptide, FLAG-AF9, single point | inhibition, % at 10 µM | Protein AF-9 (Homo sapiens), P42568 | 0.47% of 350,000 active;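 active = every replicate reaching a set inhibition limit, whatever the replicate mean, cut at about 25% in these data; inconclusive = mean inhibition reaches that limit but some replicates miss it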;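 also: 0% = plate neutral control median and 100% = total signal loss; the record names both 10 and 1 µM as test concentration; the first replicate is given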
# Target sequence (P42568 whole entry, looked up): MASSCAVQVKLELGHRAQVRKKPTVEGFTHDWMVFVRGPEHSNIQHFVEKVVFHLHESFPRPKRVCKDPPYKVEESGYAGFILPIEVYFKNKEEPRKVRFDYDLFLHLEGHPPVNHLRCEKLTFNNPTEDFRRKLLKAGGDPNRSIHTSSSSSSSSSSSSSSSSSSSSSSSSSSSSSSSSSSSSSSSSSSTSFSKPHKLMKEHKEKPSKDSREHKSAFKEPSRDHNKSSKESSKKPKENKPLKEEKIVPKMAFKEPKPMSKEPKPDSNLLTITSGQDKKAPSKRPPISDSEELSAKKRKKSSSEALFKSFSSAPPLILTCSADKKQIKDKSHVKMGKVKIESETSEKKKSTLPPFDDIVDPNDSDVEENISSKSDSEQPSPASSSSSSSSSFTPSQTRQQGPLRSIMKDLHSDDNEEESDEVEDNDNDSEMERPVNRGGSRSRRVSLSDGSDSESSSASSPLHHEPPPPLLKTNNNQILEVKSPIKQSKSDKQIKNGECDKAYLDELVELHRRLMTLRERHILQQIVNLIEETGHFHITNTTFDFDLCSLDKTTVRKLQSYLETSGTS
# FGF22 binding = binders of human FGF22 protein, primary screen, FGF22 synaptogenesis inhibitor project, biophysical, thermal shift, single point. Fibroblast growth factor 22 (Homo sapiens), Q9HCT0. calls only at 9.99 µM. 1.5% of 340,000 active. recombinant FGF22 thermal shift, SYPRO orange fluorescence; percent of sucrose octasulfate shift, DMSO zero;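 active = melting point raised past a set limit in the mean and every replicate; inconclusive = no clear call; three in four hits are not shown here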
# Target sequence (Q9HCT0 whole entry, looked up): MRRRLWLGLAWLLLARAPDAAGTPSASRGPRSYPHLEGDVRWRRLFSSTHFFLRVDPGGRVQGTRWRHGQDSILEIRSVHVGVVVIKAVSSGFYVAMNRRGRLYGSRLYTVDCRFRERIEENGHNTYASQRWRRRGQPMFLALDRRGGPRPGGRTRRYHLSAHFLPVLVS
# rRNA inh HTS OD600 = further read-out of rRNA inh HTS, marked with its call; OD600 change, %; measured here: OD600 growth;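 optical density of the mix in the first replicate; 0 = DMSO median and -100 = no signal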
# rRNA inh HTS RFP = further read-out of rRNA inh HTS, marked with its call; RFP signal change, %; measured here: RFP humanized mutant strains;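 first replicate; 0 = DMSO median and -100 = no signal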
# Numbers without * were called inactive; i = inactive; ? = inconclusive; & = joins results of further samples. An excerpt; count on the stated rates, not on these rows.
SMILES,rRNA inh HTS,rRNA inh HTS OD600,rRNA inh HTS RFP,MLL AF4-AF9 inh,FGF22 binding
Cc1noc(C)c1S(=O)(=O)N(C)C[C@H]1Oc2ccc(NC(=O)c3ccncc3)cc2CC(=O)N([C@H](C)CO)C[C@H]1C,1,-5,-0.4,-7.6,i
Cn1cnc(S(=O)(=O)N2C[C@H](O)COC[C@@H]3O[C@H](CC(=O)NCc4ccc(F)cc4)CC[C@H]32)c1,-1,2,-3.4,-2.4,i
CCC(=O)N1C[C@@H]2[C@H](c3ccccc31)[C@H](CO)N2Cc1ccccc1OC,0,-5,0.7,-21,i
C[C@H]1CN([C@@H](C)CO)C(=O)Cc2cc(NC(=O)CCN3CCOCC3)ccc2O[C@@H]1CN(C)Cc1ccc(C(F)(F)F)cc1,-4,0,0.9,1.5,i
CS(=O)(=O)Nc1ccc2c(c1)[C@@H]1C[C@@H](CC(=O)NCCc3ccccc3)O[C@@H](CO)[C@@H]1O2,0,-6,2.7,-1.1,i
Cc1cc(C)cc(CC(=O)N2CCC2(C)C(=O)NS(=O)(=O)c2ccc(C#N)cc2)c1 (centres undefined),5,13,1.7,-3.8,i
Cc1noc(C)c1S(=O)(=O)Nc1ccc2c(c1)C(=O)N([C@H](C)CO)C[C@H](C)[C@H](CN(C)C(=O)Nc1cccc3ccccc13)OCCCC[C@H](C)O2,7,-2,0.8,-4.9,i
O=C(Cc1ccccc1)N1O[C@H]2C=C[C@@H]1C2,10,7,-2.3,-3.7,i
COCC#Cc1cnc2c(c1)C(=O)N([C@@H](C)CO)C[C@@H](C)[C@H](CN(C)C)O2,7,16,-1.3,-1.5,i
COCCNc1nc(NCCOc2ccccc2Cl)c2sccc2n1,-61,-80,-20,3.7,i
C[C@@H]1CN([C@@H](C)CO)C(=O)c2cc(NC(=O)CCCN(C)C)ccc2O[C@@H](C)CCCCO[C@@H]1CN(C)Cc1ccc(C(F)(F)F)cc1,4,-33,30,2.5,i
CCCNC(=O)N(C)C[C@@H]1Oc2ncc(Br)cc2C(=O)N([C@H](C)CO)C[C@@H]1C,7,11,-4.3,2.7&-1.6&-3.9,i
Cc1noc(C)c1NC(=O)N(C)C[C@@H]1Oc2c(NC(=O)c3cnccn3)cccc2C(=O)N([C@H](C)CO)C[C@@H]1C,3,7,-1.0,?,i
Cc1cccc(C)c1NC(=O)C(C)NCc1cccs1 (centres undefined),10,19,-0.6,-0.8,i
CCNC(=O)C[C@H]1CC[C@H]2[C@@H](COC[C@@H](O)CN2C(=O)Nc2ccc(C(F)(F)F)cc2)O1,-54,-73,-5.7,-1.2,i
C[C@@H]1CN([C@@H](C)CO)C(=O)Cc2cc(NS(=O)(=O)c3ccccc3)ccc2O[C@@H]1CN(C)Cc1ccc(C(F)(F)F)cc1,8,12,0.2,-11,i
C=CCN=C1NC(c2cccc(Cl)c2)C(C(=O)OC)=C(C)N1C (centres undefined),15,22,2.6,-3.5,i
COc1ccc(NC(=O)N(C)C[C@@H]2Oc3c(NC(=O)Nc4cccc5ccccc45)cccc3C(=O)N([C@H](C)CO)C[C@H]2C)cc1,-1,0,-1.5,5.4,i
CC1(C(=O)Nc2cnc3ccccc3c2)CCN1C(=O)C/C=C/c1ccccc1 (centres undefined),-10,-32,0.5,-0.2,i
O=C(C[C@H]1C[C@H]2c3cc(NC(=O)C4CCOCC4)ccc3O[C@H]2[C@@H](CO)O1)NCc1ccc(Cl)cc1,2,-2,0.0,-2.2,i
CO[C@H](CN(C)C(=O)c1ccccc1F)[C@@H](C)CN([C@@H](C)CO)S(=O)(=O)c1ccccc1,-3,-2,-1.1,-24,i
CC(C)NC(=O)Nc1ccc2c(c1)C(=O)N([C@@H](C)CO)C[C@@H](C)[C@H](CN(C)C(=O)c1ccncc1)OCCCC[C@@H](C)O2,4,0,-2.1,-2.1,i
Cc1ccc(S(=O)(=O)N(C)C[C@@H]2Oc3ccc(NC(=O)Nc4ccc(F)cc4)cc3C(=O)N([C@H](C)CO)C[C@@H]2C)cc1,-3,-3,1.3,-0.2,i
C[C@H]1CN([C@@H](C)CO)C(=O)c2cc(C#CCN(C)C)cnc2O[C@@H]1CN(C)C(=O)c1cccc(F)c1,0,-2,-0.2,-5.8,i
COc1ccccc1C#Cc1ccc2c(c1)[C@H]1[C@H](CCN1S(=O)(=O)c1ccccc1)[C@H](CO)N2,-2,10,0.7,-8.4,i
CCNC(=O)C[C@H]1CC[C@@H]2[C@H](COC[C@H](O)CN2C(=O)Nc2ccc(Cl)c(Cl)c2)O1,-59,-76,-18,-1.1,i
Cc1ccc(-c2nc3ccccc3n2C(C)C(=O)NC(C)(C)C)cc1 (centres undefined),-1,2,0.2,-0.3,i
O=C(Nc1ccc(Cl)c(Cl)c1)N[C@@H]1CC[C@@H](CCNC(=O)c2ccc(F)cc2)O[C@H]1CO,-34,-42,-3.5,-0.3,i
Nc1ccccc1C(=O)NN=Cc1cccc([N+](=O)[O-])c1,-2,-12,4.0,-11,i
C[C@H]1CN([C@@H](C)CO)C(=O)Cc2cc(NS(=O)(=O)c3ccccc3)ccc2O[C@H]1CN(C)C(=O)Nc1ccc(F)cc1,4,3,1.3,-2.5,i
O=C(C[C@@H]1CC[C@@H](NC(=O)CN2CCOCC2)[C@@H](CO)O1)NC1CCCCC1,3,-2,2.6,-1.7,i
Nc1c(Br)cc2c(c1Br)C(O)c1ccccc1-2 (centres undefined),-53,-71,-18,-2.1,i
CN1N=C(C(=O)N=c2sc3ccccc3n2C)CCC1=O,7,1,-3.0,-6.4,i
Cc1ccc(S(=O)(=O)N(C)C[C@@H]2Oc3c(NC(=O)NC4CCCCC4)cccc3C(=O)N([C@H](C)CO)C[C@H]2C)cc1,-1,-2,0.9,-1.5,i
O=C(C[C@H]1C[C@@H]2c3cc(NS(=O)(=O)c4ccc(F)cc4)ccc3O[C@@H]2[C@H](CO)O1)NCc1ccccc1,-3,-5,0.7,0.5,i
Cc1ccccc1NC(=O)Nc1nc(C(N)c2ccccc2)cs1 (centres undefined),-2,6,-0.5,7.5,i
CCCCC[C@H](C)N1C[C@@H](COCc2ccccc2)Oc2cc(N3CCC[C@@H]3CO)ccc2S1(=O)=O,5,5,-1.4,-3.6,i
COCOCCn1cc(CN2CCS(=O)(=O)N(Cc3ccc(-c4cccc(CO)c4)cc3)C(C)C2=O)nn1 (centres undefined),14,11,3.9,0.7,i
CC(C)(C)[S@](=O)N1Cc2cc(C(=O)N3CCCCC3)nc(-c3cccc(-c4ccc(C#N)cc4)c3)c2[C@@H]1CCO,4,14,1.7,6.0,i
Cc1noc(C)c1NC(=O)N(C)C[C@@H]1Oc2ccc(NS(C)(=O)=O)cc2C(=O)N([C@H](C)CO)C[C@@H]1C,0,0,-1.6,-2.5,i
O=C(c1cccc(F)c1)N1CCCCN2[C@H](CO)[C@H](c3ccc(/C=C/c4ccccc4)cc3)[C@@H]2C1,1,12,5.5,3.6,i
CC(=O)NC[C@@H]1[C@@H](c2ccc(-c3cccnc3)cc2)[C@H](CO)N1C(=O)C1CC1,3,7,-1.4,-0.2,i
O=C(C[C@H]1C[C@H]2c3cc(NC(=O)c4cccnc4)ccc3O[C@H]2[C@H](CO)O1)NCc1ccccc1,-2,-1,0.1,1.2,i
O=C(C[C@H]1CC[C@@H](NC(=O)Nc2ccccc2F)[C@H](CO)O1)NCc1ccc(-c2ccccc2)cc1,-5,-5,-1.3,-2.0,i
CC(C)NC(=O)Nc1ccc2c(c1)C(=O)N([C@H](C)CO)C[C@@H](C)[C@@H](CN(C)C(=O)Nc1cccc3ccccc13)O2,-1,-11,-0.4,-6.7,i
O=C1c2ccccc2-c2c1c1ccccc1c(=O)n2-c1ccccc1,3,14,-2.2,0.2,i
CO[C@H]1CN(C)C(=O)c2cc(NC(=O)C3CCCC3)ccc2OC[C@H](C)NC[C@H]1C,6,6,-1.7,-1.0,i
C[C@H](CO)N1C[C@H](C)[C@H](CN(C)Cc2ccc(Oc3ccccc3)cc2)Oc2c(NC(=O)c3cnccn3)cccc2C1=O,-17,-56,28,7.8,i
C[C@H](CO)N1C[C@H](C)[C@@H](CN(C)C)Oc2ccc(NC(=O)Nc3ccc(F)cc3)cc2CC1=O,4,17,1.2,0.9,i
COc1ccc(Br)c(C(=O)OCC(=O)NC2CCCCCCC2)c1,-40,-72,-7.0,-2.9,i

# A few values from the results shown.
# Value of COc1ccc(Br)c(C(=O)OCC(=O)NC2CCCCCCC2)c1 in rRNA inh HTS RFP: -7.0
# Value of O=C1c2ccccc2-c2c1c1ccccc1c(=O)n2-c1ccccc1 in rRNA inh HTS: 3

# One compound at a time, as listed above. Order of values: rRNA inh HTS, rRNA inh HTS OD600, rRNA inh HTS RFP, MLL AF4-AF9 inh, FGF22 binding
# Results for O=C1c2ccccc2-c2c1c1ccccc1c(=O)n2-c1ccccc1 = 3, 14, -2.2, 0.2, i
# Results for O=C(c1cccc(F)c1)N1CCCCN2[C@H](CO)[C@H](c3ccc(/C=C/c4ccccc4)cc3)[C@@H]2C1 = 1, 12, 5.5, 3.6, i
# Results for COc1ccc(Br)c(C(=O)OCC(=O)NC2CCCCCCC2)c1 = -40, -72, -7.0, -2.9, i
# Results for O=C(C[C@H]1C[C@H]2c3cc(NC(=O)c4cccnc4)ccc3O[C@H]2[C@H](CO)O1)NCc1ccccc1 = -2, -1, 0.1, 1.2, i
# Results for CC(=O)NC[C@@H]1[C@@H](c2ccc(-c3cccnc3)cc2)[C@H](CO)N1C(=O)C1CC1 = 3, 7, -1.4, -0.2, i

# Going on with the list:
SMILES,rRNA inh HTS,rRNA inh HTS OD600,rRNA inh HTS RFP,MLL AF4-AF9 inh,FGF22 binding
CC(C)=CC(=O)NCC1CCN(C(=O)C(=O)c2cc3ccccc3o2)CC1,3,-1,1.1,-0.4,i
CCOc1ccc(CCN2C(=O)C(=O)N([C@@H](Cc3ccccc3)CN3CCC[C@H]3CN3C(=O)C(=O)NC[C@@H]3Cc3ccccc3)C[C@@H]2Cc2ccc(O)cc2)cc1,2,3,15,3.2,i
O=C(Nc1nnc([C@H]2C[C@H](O)[C@@H](CO)O2)s1)Nc1ccccc1Oc1ccccc1,0,11,-0.6,0.7,i
COc1ccc(S(=O)(=O)N(C)C[C@@H]2OCCCC[C@H](C)Oc3ccc(NS(=O)(=O)c4ccc(F)cc4)cc3C(=O)N([C@@H](C)CO)C[C@@H]2C)cc1,3,5,2.8,0.5,i
C[C@H]1CN([C@@H](C)CO)C(=O)c2cccc(NC(=O)Nc3ccc(C(F)(F)F)cc3)c2O[C@@H]1CN(C)C(=O)Nc1ccc(C(F)(F)F)cc1,6,5,0.8,0.6,i
C[C@H](CO)N1C[C@H](C)[C@H](CN(C)Cc2ccccn2)Oc2ncc(C#C[C@@H](C)O)cc2C1=O,2,17,-1.2,-0.6,i
C[C@H](CO)N1C[C@H](C)[C@@H](CN(C)S(=O)(=O)c2cccs2)OCCCC[C@H](C)Oc2ccc(NC(=O)CCCN(C)C)cc2C1=O,-3,3,-1.4,0.4,i
O=C(c1ccccc1)N1C[C@H]2[C@@H](c3ccccc31)[C@@H](CO)N2Cc1cocn1,3,10,-2.4,0.3,i
CO[C@@H]1CC[C@@H]2CCOc3c(C#N)cccc3C(=O)N(C)CCCC(=O)N(C)C[C@@H]1O2,8,4,-3.2,-3.1,i
C[C@H](CO)N1C[C@H](C)[C@@H](CN(C)C(=O)Nc2ccc3c(c2)OCO3)Oc2ccc(NC(=O)CCN3CCOCC3)cc2CC1=O,4,12,0.4,2.5,i
CO[C@@H]1CN(C)C(=O)c2ccc(NC(=O)C3CCOCC3)cc2OC[C@@H](C)N(C(=O)Nc2ccc(C(F)(F)F)cc2)C[C@H]1C,-59,-78,-20,-1.7,i
C[C@@H]1CN([C@@H](C)CO)C(=O)c2c(c3ccccc3n2C)-c2ccccc2CO[C@@H]1CN(C)C(=O)Nc1ccccc1,0,-9,3.1,3.8,i
C[C@H](NC(=O)C[C@@H]1CC[C@H](NC(=O)C2CC2)[C@@H](CO)O1)c1ccccc1,1,4,2.3,-0.1,i
